Bioassay records (PubChem)
Yeast UUG start: modulators of start codon recognition fidelity in yeast; S. cerevisiae UUG-firefly luciferase reporter, luminescence/redox ratio; activity score, % at 18.7 µM; 0.13% of 350,000 active;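 active = replicate mean at a twofold rise or more, about +100% in these data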;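 also: firefly luciferase made from a UUG start codon reports start codon fidelity; reporter light over untreated wells divided by growth signal over untreated wells; some hits fall short of that in this replicate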
PABP polyA inh: PABP-poly(A) binding inhibition. P11940. PABP-poly(A) RNA binding, fluorescence polarization. inhibition, % at 35 µM. 1% of 290,000 active;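 active = 50% or more with normal probe brightness, or confirmed in later tests; inconclusive = above 50% with abnormal brightness, or retests that disagree; inactive = below 50% or failed in later tests; about a fifth of its hits are not listed in these tables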;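 also: calls also rest on retests at 20 µM and on dose response follow-up; controls were probe without protein and protein plus probe with vehicle; some compounds called inactive have numbers as strong as hits; many hits fall short of the cut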
eIF4H inh: inhibitors of RNA binding by human eIF4H; Q15056; eIF4H fluorescence polarization binding assay; inhibition, % at 35 µM; 0.94% of 290,000 active; AID 2012;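 active = 50% or more with normal probe brightness, or confirmed in later tests; inconclusive = above 50% with abnormal brightness, or retests that disagree; inactive = below 50% or failed in later tests; about a fifth of its hits are not listed in these tables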;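 also: calls also rest on retests at 20 µM and on dose response follow-up; 0% = protein and probe with vehicle and 100% = probe without protein; strong numbers were not always called active; many hits fall short of the cut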
HIV Env fusion: blocks HIV Env-driven cell-cell fusion; HeLa-JRFL Env/CEM21 cell fusion, luciferase; inhibition, % at 12.3 µM; 1.1% of 360,000 active; AID 651610;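 active = mean replicate inhibition score of at least 50 and every replicate individually at or above 50; inconclusive = only one of the two criteria met; inactive = mean below 50 and not all replicates reaching 50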;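 also: 0% = plate neutral controls and 100% = maraviroc near 300 nM; one replicate is shown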
CSC inhib: cancer stem cell inhibition; cancer stem cell-like cells viability, luminescence; inhibition, % at 7.5 µM; 1.1% of 300,000 active; AID 2717;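 active = mean at 75% or more and at least half the replicates too; inconclusive = mean and replicates disagree; tested in HMLE shEcad cells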;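 also: 0% = median of negative and 100% = median of positive control wells; the first replicate is given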
Rce1 inhib: yeast Ras-converting enzyme inhibition; yeast membranes, quenched prenylated peptide cleavage fluorescence; calls only; AID 2563; Q03530; 0.27% of 290,000 active;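 active = fall in fluorescence gain of 50% or more versus controls, with final raw signal at or below 3038400; inconclusive = same 50% fall but final raw signal above 3038400; inactive = fall in fluorescence gain under 50%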;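 also: plate controls were neutral control wells for no effect and wells lacking membranes for full effect; tested at 10 µM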
Target sequence (Q03530 whole entry, looked up): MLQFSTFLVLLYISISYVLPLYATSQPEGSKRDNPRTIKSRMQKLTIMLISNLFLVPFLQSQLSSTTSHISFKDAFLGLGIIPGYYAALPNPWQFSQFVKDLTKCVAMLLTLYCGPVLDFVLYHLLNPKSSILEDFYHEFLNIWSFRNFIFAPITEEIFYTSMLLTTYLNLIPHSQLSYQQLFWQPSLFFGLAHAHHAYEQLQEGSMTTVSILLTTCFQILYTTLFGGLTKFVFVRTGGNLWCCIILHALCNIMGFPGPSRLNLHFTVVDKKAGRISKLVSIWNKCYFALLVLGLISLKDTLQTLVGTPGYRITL
MT1-MMP act inh: blocks activation of human MT1-MMP. HT1080 RFP-PRO-GFP cells, GFP/RFP ratio fluorescence, overnight; percent of plate control window, DMSO zero. AID 651647. 0.061% of 360,000 active. GFP/RFP ratio change, % at 20 µM. P50281;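 active = GFP/RFP ratio change of at least 30% with cell ATP level not reduced by more than half and red fluorescence within 50% of control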; also: strong numbers were not always called active
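Material: RFP-PRO-GFP reporter HT1080 cells. Dosing: single-point 20 µM compound, 1% DMSO. Controls: DMSO and RFP-L50D-GFP cell wells. Timing: cells overnight before dosing, compound overnight, 37 °C, 5% CO2. Measure: GFP/RFP fluorescence ratio.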
eIF4H inh retest: also measured in eIF4H inh; calls as there; inhibition, %; compound at 20 µM; confirmation average;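 mean of two retest wells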
PABP polyA inh retest: also measured in PABP polyA inh; calls as there; inhibition, %; compound at 20 µM; confirmation repeats;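 mean of two retest wells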
MT1-MMP act inh RFP: also measured in MT1-MMP act inh; calls as there; RFP signal change, %; measured here: RFP expression control read;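 0 = vehicle wells; hits needed this value within 50% of zero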
Starred values were filed as active, the others as inactive; i = inactive; ? = inconclusive; . = not tested or not shown; & = joins results of further samples; [ ] = another dose, or the depositor's remark. Some of the compounds tested; rates above refer to the full screens.

SMILES	Yeast UUG start	PABP polyA inh	eIF4H inh	HIV Env fusion	CSC inhib	Rce1 inhib	MT1-MMP act inh	MT1-MMP act inh RFP	others
C[C@H]1C=C(C(=O)NCc2nc3ccccc3[nH]2)O[C@@H](OCc2ccc(CO)cc2)C1	-19&-22	-9	-11	-2[16.7 µM]	12	i	-2	-2
O=C(CC(C(=O)O)N1CCOCC1)Nc1ccc(Cl)cc1 (configuration not stated)	.	6	8	.	-4	i	2	2
CC(C)Cc1ccc(CN2CCCC(NC(=O)c3ccnn3C)C2)cc1 (configuration not stated)	4	-1	-4	.	11	i	-2	-20
COc1ccccc1NC(=O)C(C)OC(=O)CC1CCCCC1 (configuration not stated)	5	.	.	i	.	.	0	0
Nc1c(C(=O)NC2CCCC2)c2nc3ccccc3nc2n1/N=C/c1cccnc1	-16	.	.	31	45	i	-3	-3
COc1ccc(S(=O)(=O)NCC2CCCN(C(=O)C=C(C)C)C2)cc1 (configuration not stated)	.	-6	-7	15	-18	i	1	0
NC(=S)NNc1cc(Cl)cc(Cl)c1	-17	18	-21	-51	-8	i	19	3
Cc1onc(-c2ccccc2Cl)c1C(=O)Nc1ccc(F)c(F)c1	-13	-1	-2	-71	-1	i	3	-3
CN(C)S(=O)(=O)c1ccc(N2CCCC2)c(C(=O)NC2CCC(O)CC2)c1 (configuration not stated)	4	.	.	-2	-6	i	3	4
CCN(CC)CCCNC(=O)CSc1nc(C)cc(C)n1	.	-2	0	-10	-8	i	2	0
CC1(/[N+]([O-])=C/c2ccc(F)cc2)CCCCC1=O (configuration not stated)	.	6	-5	5	-3	i	0	5
O=C(Cn1ncc2c(=O)oc3ccccc3c21)N1CCc2ccccc2C1	0	-13	0	24	-11	i	3	0
O=C(COc1ccc2c3c(c(=O)oc2c1)CCC3)NC(Cc1ccc(Cl)cc1)C(=O)O (configuration not stated)	8	6	-2	.	15	i	-1	3
CCOC(=O)C1CCN(c2c(NCc3ccc(C(=O)NC(C)CC)cc3)c(=O)c2=O)CC1 (configuration not stated)	-36	-4	-7	.	3	i	0	4
CC1Cc2nc(SCC(=O)NCC3CCCO3)n(-c3ccccc3)c(=O)c2S1 (configuration not stated)	-10	.	.	-7	.	.	0	1
CCOCCOc1nc2c(c(=O)n(C)c(=O)n2C)n1Cc1ccc(C)cc1	-4	-2	-1	-8	-4	i	4	1
C[n+]1ccccc1Nc1cc([N+](=O)[O-])ccc1N	-5	48	8	11	-9	i	-1	0
COc1ccc(/C=N/NC(=O)c2ccc(NC(=O)C3CCCCC3)cc2)cc1O	-17	2	-11	-8	.	i	8	2
COc1cccc(CN2CCNC(=O)C2CC(=O)NCCc2ccccn2)c1 (configuration not stated)	.	16	11	7	-17	i	-1	4
COc1ccc(C)cc1NC(=O)NNC(=O)c1ccoc1C	-2	-3	-6	1	.	i	-5	-1
CNc1nc(C)nc(N/N=C/c2ccccc2)n1	.	2	-2	7	2	i	5	8
CCOc1ccc(Br)cc1C1=NN(C(C)=O)C(c2ccc([N+](=O)[O-])s2)O1 (configuration not stated)	-10	5	-1	-28	.	i	-1	2
CCC(=O)Nc1ccc(NC(=O)CSc2nnc(-c3ccco3)n2CC)cc1	.	7	2	-7	6	i	3	3
CC(C)CCC(C)NC(=O)Cc1ccc(S(=O)(=O)N2CCOCC2)s1 (configuration not stated)	8	-14	5	-1	-7	i	0	2
CCOC(=O)c1c(CC(C)C)csc1N	16	-6	-3	14	-7	i	4	6

Next section:
SMILES	Yeast UUG start	PABP polyA inh	eIF4H inh	HIV Env fusion	CSC inhib	Rce1 inhib	MT1-MMP act inh	MT1-MMP act inh RFP	others
O=[N+]([O-])c1cc(C(F)(F)F)cc([N+](=O)[O-])c1NCc1cccnc1	.	1	-1	20	26	i	-2	-4
CN1CCC(OC(=O)c2ccccc2Cl)CC1	.	0	-3	13	21	i	-6	0
Cc1ccc(OCc2cc(C(=O)NC(C)Cc3cccnc3)no2)cc1C (configuration not stated)	-8	-2	7	-9	-4	i	-3	-8
CCc1nc(SCC(=O)Nc2cc(C)on2)c2c(=O)n(C)c(=O)n(C)c2n1	0	-8	-14	-16	-16	i	1	2
COc1cc(C(=O)Nc2ccc(NC(=O)c3ccccc3Cl)nc2)cc(OC)c1OC	-1	2	-1	11	1	i	3	1
CN(C)S(=O)(=O)c1ccc(C(=O)/C=C/c2cccnc2)cc1	-11	2	11	0	4	i	-2	-1
COc1ccc(N2CCN(C(=O)CSc3nc4c(c(=O)n(C)c(=O)n4C)n3C(C)C)CC2)cc1	14	2	1	.	-12	i	3	-4
COc1ccc2ccccc2c1/C=N/NC(=S)NCCN1CCOCC1	.	-5	1	1	-20	i	1	-7
Cc1ccc(C(=O)N2CCN(c3ccc(NC(=O)c4cccnc4Cl)cc3)CC2)cc1	-13	-1	-2	7	-16	i	-1	-4
CC(C)CCN1CCC(CN2CCNC(=O)C2=O)CC1	-2	.	.	i	.	.	2	5
CCOc1ccc2cc(C(=O)c3ccccc3)c(=O)oc2c1	-12	-6	3	.	4	i	-1	5
Cc1ccc(-c2cc(=O)[nH]c(NCc3ccccc3)n2)cc1	-11	.	.	5	-7	i	4	3
O=C(CN1CCN(C(=O)C2CCCO2)CC1)Nc1ccc(Br)cc1 (configuration not stated)	-11	-12	-5	5	-7	i	1	3
O=c1c(-c2nn[nH]n2)coc2ccc(Cl)cc12	.	8	-3	-20	-4	i	-2	-2
O/C(=C\c1ccc2ccccc2n1)c1ccc(O)cc1O	-61	-3	?	-301	34	.	-63	3
Cc1cccc(N2CCN(C(=O)CCS(=O)(=O)c3ccc(Br)cc3)CC2C)c1 (configuration not stated)	-1	9	74	7	-1	i	-3	2	eIF4H inh retest=10;PABP polyA inh retest=12
CCn1c(SCC(=O)Nc2c(C#N)cnn2-c2ccccc2)nnc1-c1cccs1	-12	3	8	-4	-3	i	7	-1
Cc1ccc(CNC(=O)C2(S(=O)(=O)c3ccccc3)CC=CC2)cc1	-10	2	-8	.	-1	i	1	2
Clc1cc2nc(-c3cccnc3Cl)[nH]c2cc1Cl	-13	1	-1	-115	-9	i	2	-1
CNC(=O)NC(=O)COc1c(F)c(F)cc(F)c1F	.	-3	-3	8	-7	i	3	6
N#CC1(NC(=O)CN2CCN(S(=O)(=O)c3ccccc3F)CC2)CCCC1	-5	-5	-11	9	-5	i	-7	-4
CCCSc1ncc(Cl)c(C(=O)Nc2ccc(S(=O)(=O)N3CC(C)OC(C)C3)cc2)n1 (configuration not stated)	0	-3	-4	38	.	i	-2	-15
CCOC(=O)CNC(=O)N1C[C@H]2CON(C)[C@H]2C[C@H]1c1ccccc1Br	5	.	.	-49	.	.	1	2
CC1CCCCC1NC(=O)COC(=O)COc1ccccc1F (configuration not stated)	-3	.	.	27	-9	.	3	6
Cc1ccc(C2(C)NC(=O)N(CC(=O)c3ccc4c(c3)OCCO4)C2=O)cc1 (configuration not stated)	8	.	.	.	-8	.	-2	1

Some of these compounds in order of SMILES length, low to high.
SMILES	Yeast UUG start	PABP polyA inh	eIF4H inh	HIV Env fusion	CSC inhib	Rce1 inhib	MT1-MMP act inh	MT1-MMP act inh RFP	others
CN1CCC(OC(=O)c2ccccc2Cl)CC1	.	0	-3	13	21	i	-6	0
O=c1c(-c2nn[nH]n2)coc2ccc(Cl)cc12	.	8	-3	-20	-4	i	-2	-2
Cc1ccc(-c2cc(=O)[nH]c(NCc3ccccc3)n2)cc1	-11	.	.	5	-7	i	4	3
O=C(CN1CCN(C(=O)C2CCCO2)CC1)Nc1ccc(Br)cc1 (configuration not stated)	-11	-12	-5	5	-7	i	1	3
Cc1ccc(OCc2cc(C(=O)NC(C)Cc3cccnc3)no2)cc1C (configuration not stated)	-8	-2	7	-9	-4	i	-3	-8
Cc1ccc(CNC(=O)C2(S(=O)(=O)c3ccccc3)CC=CC2)cc1	-10	2	-8	.	-1	i	1	2
CCc1nc(SCC(=O)Nc2cc(C)on2)c2c(=O)n(C)c(=O)n(C)c2n1	0	-8	-14	-16	-16	i	1	2
Cc1ccc(C2(C)NC(=O)N(CC(=O)c3ccc4c(c3)OCCO4)C2=O)cc1 (configuration not stated)	8	.	.	.	-8	.	-2	1
Cc1ccc(C(=O)N2CCN(c3ccc(NC(=O)c4cccnc4Cl)cc3)CC2)cc1	-13	-1	-2	7	-16	i	-1	-4
CCOC(=O)CNC(=O)N1C[C@H]2CON(C)[C@H]2C[C@H]1c1ccccc1Br	5	.	.	-49	.	.	1	2

New compounds follow:
SMILES	Yeast UUG start	PABP polyA inh	eIF4H inh	HIV Env fusion	CSC inhib	Rce1 inhib	MT1-MMP act inh	MT1-MMP act inh RFP	others
COc1ccc(NC(=O)CN2CCN(c3ccc(Cl)cc3)CC2)c(OC)c1	-1	2	7	.	-15	i	1	-2
CN(C)C(CNC(=O)c1cccc(S(=O)(=O)NCc2ccccc2)c1)c1ccco1 (configuration not stated)	-20	.	.	-5	-11	i	2	2
CCCn1nc(C(=O)NCCc2ccc(S(N)(=O)=O)cc2)c2ccccc2c1=O	-2	4	-2	.	8	i	-8	-3
COc1ccc(C)cc1NC(=O)C(=O)NNC(=O)c1ccco1	5	-5	-8	16	-7	i	6	3
c1ccc(-c2cn(C[C@H]3CC[C@H](Cn4cc(-c5ccccn5)nn4)O3)nn2)nc1	-11	8	10	16	-7	i	1	4
COCCNC(=O)c1onc(CSc2ccncc2)c1C(=O)NCCOC	-28	2	5	13	-14	i	-2	-1
Cc1ccc(OCCSc2nc(N)cc(N)n2)cc1	.	3	1	-28	-1	i	3	-8
Cc1nn(C(C)C(=O)NCCCN2CCCCCC2)c(=O)c2c1sc1ccccc12 (configuration not stated)	-3	-15	-9	4	-1	i	0	4
CCC1CCCCN1S(=O)(=O)c1ccc(C(=O)N(CCCN(C)C)c2nc3cc4c(cc3s2)OCO4)cc1 (configuration not stated)	4	10	-22	-1	4	i	0	-3
CCOC(=O)C1CCN(c2cc3c(cc2NC(=O)c2ccccc2Br)n(C)c(=O)n3C)CC1	8	.	.	-3	3	i	1	-3
Cc1cc(C(=O)OCC(=O)Nc2ccccc2Br)c(C)o1	-9	.	.	-7	11	.	4	-2
COc1ccc(OC)c(NC(=O)CCNS(=O)(=O)c2cc(Br)cnc2N)c1	-11	.	.	2	-6	i	0	0
Cc1ccc2oc(=O)c3cnn(CC(=O)N(CCCN4CCOCC4)Cc4ccco4)c3c2c1	7	2	-6	-26	2	.	1	5
NS(=O)(=O)c1ccc(CCNC(=O)C2CCN(C(=O)Nc3ccccc3)CC2)cc1	-7	.	.	-11	-8	.	5	7
COC(=O)c1ccc(N2CCCCC2)c(N)c1	-18	2	-3	-28	-7	i	6	3
CN1C(=O)c2ccccc2C(C(=O)NCc2ccco2)C1c1c[nH]c2ccccc12 (configuration not stated)	2	6	1	.	-7	i	-1	-1
CCCC(=O)Nc1ccc(NC(=O)c2cccc(OC)c2)nc1	-17	-1	4	.	-7	.	13	4
